# Menin-MLL FL inh: qHTS Assay for Inhibitors Targeting the Menin-MLL Interaction in MLL Related Leukemias: Competition With Fluorescein Labeled MLL-derived Peptide. Fluorescence polarization, fluorescein-MLL peptide displacement from menin. FP activity change, % at 61.4 µM. 290,000 tested, under 10 active; inconclusive = falling polarisation curve, or a change in total fluorescence; inactive = total fluorescence flat and polarisation flat or rising; no compound was filed as active; the % refers to the polarisation; negative = inhibition;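 note: % of control where 0% means no effect; inhibitors lower the polarisation; unlabelled MLL peptide was the positive control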
# D2 agonist: Beta-Arrestin HTS for Positive Allosteric Modulators of the Human D2 Dopamine Receptor: Agonists | D(2) dopamine receptor (Homo sapiens), P14416 | DiscoveRx PathHunter D2 beta-arrestin, luminescence, 90 min; 100% = 57 uM dopamine signal | activation, % (concentration not given with the values) | hit rate 0.084% among 360,000 | AID 624465, 2012; in the data active = activation above about 40%; inconclusive = about 15% to 40%; inactive = below about 15%; note: compound concentration not given in the record; the text of the record calls up to 30% inactive
# Target sequence (P14416 whole entry, looked up): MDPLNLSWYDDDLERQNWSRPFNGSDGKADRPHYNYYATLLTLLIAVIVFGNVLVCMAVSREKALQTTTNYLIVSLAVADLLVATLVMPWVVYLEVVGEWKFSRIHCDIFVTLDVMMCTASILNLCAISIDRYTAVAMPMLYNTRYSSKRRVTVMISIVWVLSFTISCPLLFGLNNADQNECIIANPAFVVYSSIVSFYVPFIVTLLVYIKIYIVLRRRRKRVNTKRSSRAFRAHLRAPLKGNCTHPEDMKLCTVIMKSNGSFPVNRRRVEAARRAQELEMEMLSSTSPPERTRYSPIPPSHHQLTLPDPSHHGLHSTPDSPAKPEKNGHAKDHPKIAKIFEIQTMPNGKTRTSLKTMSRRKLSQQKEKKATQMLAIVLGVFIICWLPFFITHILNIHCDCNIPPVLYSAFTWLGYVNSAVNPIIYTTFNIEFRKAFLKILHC
#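 Agonist mode: compounds alone added to overnight-plated D2 PathHunter cells for 90 min at 37 C, with 57 uM final dopamine (EC100) defining full response. Beta-arrestin recruitment detected by chemiluminescent reagent, read after 1 h at ambient temperature.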
# PINK1 expr mod: A Quantitative High throughput Screen to Identify Chemical Modulators of PINK1 Expression | PINK1 immunofluorescence, high-content cytometry, 24 h | Potency, µM (top dose mostly 76.6 µM), inactives show top-dose activation (PINK1 increase), actives largely listed as activators | hit rate 0.2% among 410,000 | AID 624263, 2012; active = well fitted activation curve with a large enough effect; inconclusive = small, poorly fitted or top-dose-only effect; inactive = flat fitted curve, though single readings scatter; cell line not stated here;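 note: potency is the fitted concentration of half-maximal effect; % of control where 0% means no effect; nearly all actives have a fitted effect of over 65% in size; a mitochondrial uncoupler was the plate control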
#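 PINK1 protein, normally rapidly degraded, was detected by immunofluorescence after 24 hour compound treatment of a stable cell line. Titration data (5 concentrations) came from laser-scanning cytometry, with CCCP-treated wells as controls.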
# ClpP mod: qHTS Assay for Activators of ClpP; Potency, µM (titrated, usually from 57.5 µM), for the others: top-dose activity change, negative = active; ATP-dependent Clp protease proteolytic subunit (Bacillus subtilis (strain 168)), P80244; purified B. subtilis ClpP, FRET peptide cleavage, 20 min; AID 651965, 2013; hit rate 1.9% among 340,000; active = well fitted falling curve with a large enough effect; inconclusive = small, poorly fitted or top-dose-only effect; inactive = no such curve, though single readings can be large or run the other way; note: potency is the fitted concentration of half-maximal effect; the source files actives as falling curves though it sought activators and does not explain the sign; nearly all actives have a fitted effect of over 65% in size; many hits overshoot -100%
# Target sequence (P80244 whole entry, looked up): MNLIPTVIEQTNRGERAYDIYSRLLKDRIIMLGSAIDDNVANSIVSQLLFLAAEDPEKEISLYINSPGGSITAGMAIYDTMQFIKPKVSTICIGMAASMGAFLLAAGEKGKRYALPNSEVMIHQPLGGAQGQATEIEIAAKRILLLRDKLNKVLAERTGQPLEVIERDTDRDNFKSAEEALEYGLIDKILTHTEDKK
#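 Purified B. subtilis ClpP, 10 microg/mL final in Tris/HCl pH8 with KCl, BSA, glycerol and Tween-20, cleaved an Abz/nitrotyrosine-quenched decapeptide. Fluorescence (ex 320, em 430) was read at 0 and 20 min at room temperature. Delta was normalized to 5.8 microM ADEP and DMSO/no-enzyme controls.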
# gsp agonist: qHTS for Agonist of gsp, the Etiologic Mutation Responsible for Fibrous Dysplasia/McCune-Albright Syndrome: qHTS. gsp mutant cells, cAMP HTRF, 30 min; control for the full effect not named in the record. hit rate 0.13% among 340,000. Potency, µM (highest dose often 76.9 µM), inactives show at the top dose activation (cAMP increase), most hits filed as activators; active = well fitted activation curve with a large enough effect; inconclusive = small, poorly fitted or top-dose-only effect, or another doubt; inactive = no such curve, though single readings can be large or run the other way; cell line not stated here;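 note: phosphodiesterase inhibitor Ro 20-1724 added with compounds to block cAMP breakdown; potency is the fitted concentration of half-maximal effect; nearly all actives have a fitted effect of over 60% in size; about a fifth of the inactives were tested at one dose only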
#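 Cells stably selected in G418 were plated at 2000/well, grown 16-24 hr, then given compounds in DMSO with the PDE inhibitor […] (300 uM solution added) for 30 min at 37C; cAMP was read by HTRF.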
# gsp antag: qHTS for Antagonists of gsp, the Etiologic Mutation Responsible for Fibrous Dysplasia/McCune-Albright Syndrome: qHTS; gsp-mutant cells, cAMP HTRF, 30 min; control for the full effect not named in the record; Potency, µM (titrated, usually from 76.9 µM), without a hit: top-dose activity change, negative = inhibition, usual class: inhibitors; hit rate 0.4% among 340,000; AID 624288, 2012; active = falling curve of any shape with a large fitted effect; inconclusive = falling curve, mostly with a smaller effect; inactive = flat or rising curve; cell line not stated here;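 note: intracellular cAMP measured with PDE inhibitor Ro 20-1724 present during compound exposure; potency is the fitted concentration of half-maximal effect; % is set by controls: 0 for no effect and ±100 for the full control effect; nearly all actives have a fitted effect of over 65% in size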
#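 Cells in G418 medium, seeded 16-24 h, 37C; buffer exchange to DPBS + 1 mM CaCl2, 0.5 mM MgCl2, 0.05% BSA; cpds in DMSO + […] (300 uM stock), 30 min 37C; HTRF cAMP detection.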
# Sfp PPTase inh: qHTS Assay for Inhibitors of Bacillus subtilis Sfp phosphopantetheinyl transferase (PPTase) | AID 1490, 2009 | Potency, µM, without a hit: max response, negative = inhibition, most hits filed as inhibitors | hit rate 3.5% among 310,000 | Biochemical Sfp PPTase activity, qHTS | 4'-phosphopantetheinyl transferase ffp (Bacillus subtilis), Q9F4F7; active = well fitted inhibition curve with a large enough effect; inconclusive = small, poorly fitted or top-dose-only effect, or another doubt; inactive = no such curve, though single readings can be large or run the other way;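 note: the enzyme is Sfp with the accession as filed and its product quenches rhodamine fluorescence; potency is the fitted concentration of half-maximal effect; 0% = enzyme reaction without inhibitor and -100% = no enzyme wells; top concentration of the series not given in the record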
#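 Sfp 15 nM + cpd, 15 min RT; start w/ rhodamine-CoA 5 uM, BHQ-2-YbbR 12.5 uM (final); 50 mM Hepes pH 7.6, 10 mM MgCl2, 0.01% NP-40, 0.01% BSA; read 525/598 nm at 0 and 30 min.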
# * hit, by the source's call; ? = inconclusive; . = not tested or not shown; & = joins results of further samples; [ ] = dose if it differs, or a comment.
SMILES,Menin-MLL FL inh,D2 agonist,PINK1 expr mod,ClpP mod,gsp agonist,gsp antag,Sfp PPTase inh
C=CCC[C@H](Cc1ccc(F)cc1)C(=O)O[C@H](CNC(=O)[C@@H](CC=C)CC(=O)N(CCO)Cc1ccccc1)c1ccccc1,.,1.2,8.0%,1.0%,.,?,.
COC1OC2COC(c3ccccc3)OC2C(=O)C1NC(=O)c1ccccc1 (configuration not stated),.,1.1,0.7%,0.6%,-4.5%,9.8%,.
Cc1cccc(C)c1OCC(=O)NNC(=O)CCNC(=O)c1ccc(Br)cc1,2.7,-5.0,-2.8%,1.3%,-11.7%,-6.8%,4.2%
Cn1c(CN2CCCCC2)nc2cc(NC(=O)c3ccccc3Cl)ccc21,0.0,-0.4,8.2%,-9.8%&-7.9%,-15.8%,0.6%,-20.8%
Cc1ccc(NC(=O)C2(C)CCN2C(=O)Cc2ccc(-c3ccccc3)cc2)cc1 (configuration not stated),.,5.2,4.6%,0.2%,.,.,.
O=C(NCC1CCOCC1)c1ccc(-c2ccc(F)c(F)c2)c2ccoc12,.,1.3,2.5%,4.4%,.,.,.
CS(=O)(=O)Nc1ccc(C(=O)Nc2ccccc2C(=O)N2CCCC2)cc1,2.1,0.0,3.4%,-3.8%,-10.8%,5.7%,1.2%
COc1ccc(C=NNc2nc3ccccc3s2)cc1,.,0.8,11.7%,.,14.4%,-9.9%,.
CCN1CCN(S(=O)(=O)c2ccc(C(=O)Nc3sc4c(c3C(N)=O)CCN(CC)C4)cc2)CC1,.,-0.7,0.8%,-1.8%,?,2.3%,23.4%
Cc1ccc(C)c(NC(=O)c2cnn(-c3ccccc3)c2C)c1,-0.8,-2.5,2.3%,.,-33.7%,1.6%,12.8%
Cc1nn(Cc2ccccc2)c(C)c1NC(=O)c1cc(-c2cccs2)on1,0.2,3.0,-3.8%[38.3 µM],-2.0%,-22.8%,?,1.8%
COc1ccc(NC(=O)c2noc3c2CCCCC3)cc1,7.9,-1.0,0.6%,-9.4%,-4.8%,4.7%,-3.0%
CCCCN(C(=O)c1ccco1)c1c(N)n(CCC)c(=O)[nH]c1=O,.,-0.3,-2.1%,-4.2%,-10.4%,12.6%,.
c1ccc2c(c1)[nH]c1c(N3CCCC3)ncnc12,5.0,-0.3,-0.3%,-26.4%,?,?,11.2%
Cc1cc(N2CCCCC2)n2nc(C)c(-c3ccccc3)c2n1,0.1,0.6,?,-18.2%,-35.9%[inhibitor],-19.4%,?
CC[C@]1(C(=O)OC)[C@H]2C(=O)N(C)C(=O)[C@H]2[C@H]2CN=C(SC)N21,.,0.3,-0.5%,-0.1%,.,3.8%,.
OC(c1ccc(F)c(F)c1)c1nc(-c2csc3ccccc23)cs1 (configuration not stated),.,-2.6,8.6%,-2.3%,.,.,.
CC1CCN(CCCNC(=O)c2ccc(CSCc3cccc(Cl)c3)o2)CC1,0.1,-2.5,1.1%[38.3 µM],0.4%,5.5%,0.1%,4.9%
CC(C)C(=O)NNC(=O)CC(=O)Nc1ccccc1C(=O)O,-0.2,-0.2,0.0%,-19.3%,2.0%,11.0%,-3.5%
Fc1ccc(Nc2ccnc(-c3ccc4c(c3)OCO4)n2)cc1,2.0,.,0.5%,.,.,.,-9.6%
CNC(=O)c1c(NC(=O)CCS(=O)(=O)c2ccc(C)cc2)sc(C)c1C,.,-3.9,10.0%,.,-25.3%[15.4 µM],0.8%,.
O/N=C(\c1ccc(Cl)cc1)c1ncc(C(F)(F)F)cc1Cl,0.8,-3.0,4.3%,0.5%,11.7%,-1.2%,27.8%
COc1ccc(OC)c(NC(=O)C2CC(/C=C/c3ccccc3)=NO2)c1 (configuration not stated),-6.0,1.9,7.0%,-0.5%,59.3%[15.4 µM],0.2%,0.7%
O=C(NCC(c1ccco1)N1CCc2ccccc2C1)c1ccc([N+](=O)[O-])cc1 (configuration not stated),.,-3.2,0.3%,1.0%,-21.1%,-6.1%,.
OC[C@@H]1CN(Cc2cccc(C(F)(F)F)c2)C[C@H](n2cnc3c(NCc4ccncc4)ncnc32)O1,.,-2.0,2.9%,-3.7%,.,.,.
O=C(NCc1cccnc1)c1ccc(-c2cccc(Cl)c2Cl)o1,?,-3.4,2.1%,.,17.0%[15.4 µM],-13.6%,15.8µM*
CSc1nnc(-c2ccccc2)o1,2.0,-0.8,1.1%[38.3 µM],-1.6%,2.2%,11.7%,15.2%
CCOC(=O)c1nn(-c2ccc(C)cc2)c2nc(Nc3ccccc3)cc(=O)n12,6.3,-2.6,0.5%,-3.8%,-6.4%,-4.0%,10.2%
COC(=O)CCC(=O)Nc1ccccc1C(N)=O,3.0,-1.9,40.1%[38.3 µM],-8.5%,21.3%,10.6%,-1.0%
O=c1n(-c2ccccc2)c(=O)n2n1CC(O)C2,-5.2,-3.1,-0.4%,.,-10.0%[15.4 µM],-1.3%,27.4%
Cc1oc2c(CN3CCCC(C)C3)c(O)ccc2c(=O)c1-c1ccccc1 (configuration not stated),0.7,-2.6,0.1%,3.9%,12.6%,8.1%,14.0%
COC(=O)c1ccccc1NC(=O)COc1ccc2c(c1)OCO2,1.3,-5.4,?,24.1%,-3.8%,-18.8%,-2.5%
OCC1(CCc2ccccc2)CCN(Cc2cc(Cl)ccc2O)CC1,2.5,-2.5,6.1%,.,17.8%[15.4 µM],.,6.9%
CN(C)Cc1c(OC(=O)c2ccc(N)cc2)ccc2ccccc12,.,-1.2,0.2%,.,-18.2%,1.6%,.
N/C(=N\OC(=O)C12CC3CC(CC(C3)C1)C2)c1cccnc1,2.3,2.7,.,1.5%,12.7%,-3.4%,13.2%
Cc1cccc(CN2CCN(C(=O)c3ccccc3F)CC2)c1,6.5,-2.3,2.2%,1.4%,-49.0%[inhibitor],4.7%,?
O=C(C1CC(=O)N(c2ccc3c(c2)OCCO3)C1)N1CCN(c2cccc(C(F)(F)F)c2)CC1 (configuration not stated),.,-7.4,8.6%,1.5%,?,-7.8%,.
CCN1C(=O)/C(=C\N2CCN(c3ccc(F)cc3)CC2)SC1=S,1.2,-2.3,21.5%[38.3 µM],1.8%,?,?,-1.1%
O=C(Nc1ccc(C(F)(F)F)cc1)C1(c2ccccc2)CC1,2.9,0.9,15.2%,0.5%,10.5%[15.4 µM],-8.4%,-14.4%
Cn1c(N)c(C(=O)c2cc(-c3ccccc3)nc3ccccc23)c(=O)n(C)c1=O,4.0,-2.6,6.0%,1.1%,?,-6.0%,7.0%
CCOc1ccc(-c2cc(C(=O)NCc3ccccc3)[nH]n2)c(C)c1,.,1.8,4.0%,1.4%,.,.,.
COc1cc(OC)cc(C(=O)N[C@H](C(=O)OCC(=O)NC(=O)NC(C)(C)C)C(C)C)c1,1.9,-4.3,2.7%,-4.2%,4.0%[15.4 µM],1.3%,3.5%
CCC(=O)c1c[nH]c(C(=O)NCc2ccccc2OC)c1,4.2,-0.3,1.6%,.,-12.3%,7.0%,23.6%
COc1ccc(C2CC(c3ccccc3Cl)=NN2c2ccc(S(N)(=O)=O)cc2)cc1 (configuration not stated),.,0.3,0.9%,4.2%,.,-6.2%,.
O=C1C2CCCCC2C(=O)N1c1cccc(OS(=O)(=O)c2ccccc2)c1 (configuration not stated),1.0,-2.5,8.8%,-9.8%,?,12.8%,3.5%
Cn1c(SCC(=O)NC(=O)NCc2ccco2)nnc1C(F)(F)F,-0.3,-1.0,-4.0%,-1.1%,17.6%,4.4%,8.8%
CC(C)c1ccc(S(=O)(=O)N2CCN(C(=O)CCc3nc4ccccc4c(=O)[nH]3)CC2)cc1,.,0.1,-0.1%,0.1%,-8.1%,.,.
CCNc1nc(SCC(=O)OC)nc(N2CCOCC2)n1,1.4,-3.5,-0.3%,-0.9%,0.5%,20.1%,5.3%
O=C(c1cc(-c2ccccn2)nc2c(Cl)cccc12)N1CCN(S(=O)(=O)c2ccccc2)CC1,11.8,-1.4,1.0%,-3.1%,10.5%,13.5%,-15.2%
O=C(C1CCCN1S(=O)(=O)c1ccc(Cl)c(Cl)c1)N1CCCCC1 (configuration not stated),0.4,-2.7,-1.9%,1.6%,-9.9%,5.5%[15.4 µM],12.3%
Cc1ccc2cc(CN(c3cccc(C)c3C)S(=O)(=O)c3ccccc3)c(=O)[nH]c2c1,2.0,2.2,4.8%,-21.0%,-84.7%[inhibitor],-11.4%,9.0%
O=C(COC(=O)Cc1ccc(Br)cc1)Nc1ccc(Cl)cn1,.,-0.7,2.9%,-0.9%,8.4%,-0.7%,.
CC(Oc1ccccc1F)c1ccnc2nc(/N=C/N(C)C)nn12 (configuration not stated),-2.3,-2.7,1.7%,.,3.4%[15.4 µM],-1.9%,9.8%
CC(C)=C(NC(=O)c1ccccc1)C(=O)NCCc1nc2ccccc2[nH]1,.,-1.1,-0.8%,-0.6%,19.5%,6.5%,10.8%
CS(=O)(=O)N(CC(=O)NCCSCc1cccc(Cl)c1)c1ccc2c(c1)OCO2,1.6,-3.1,-2.1%,0.6%,3.8%,-8.2%,-9.7%
O=S(=O)(c1ccccc1Br)N1CCN(c2ncccn2)CC1,0.2,-0.9,2.1%,.,-8.2%[15.4 µM],13.9%,12.2%
CCN1CCc2c(sc(NC(=O)COc3ccccc3)c2C(=O)OC)C1,-5.8,-2.1,3.0%,2.4%,-34.2%[inhibitor],-9.0%,-8.4%
CCn1c(SCC(=O)N/N=C/c2ccc(C)o2)nnc1-c1ccccc1,-0.6,-3.5,-1.9%,-0.5%,27.3%,3.7%,-2.1%
